TRPV1 potentiator – HTS Assay for Compounds that Act as Potentiators of the Vanilloid Receptor 1. 0.02% of 320,000 active. TRPV1-expressing cells, Fluo-8 calcium influx, capsaicin EC20 potentiation; host cell line not named in the record; control for the full effect not named in the record. potentiation, % at 8.33 µM; active means potentiation above 80%; inconclusive means 30% to 80%; inactive means below 30%; also: 0% is about no effect
Target sequence (Q8NER1 whole entry, looked up): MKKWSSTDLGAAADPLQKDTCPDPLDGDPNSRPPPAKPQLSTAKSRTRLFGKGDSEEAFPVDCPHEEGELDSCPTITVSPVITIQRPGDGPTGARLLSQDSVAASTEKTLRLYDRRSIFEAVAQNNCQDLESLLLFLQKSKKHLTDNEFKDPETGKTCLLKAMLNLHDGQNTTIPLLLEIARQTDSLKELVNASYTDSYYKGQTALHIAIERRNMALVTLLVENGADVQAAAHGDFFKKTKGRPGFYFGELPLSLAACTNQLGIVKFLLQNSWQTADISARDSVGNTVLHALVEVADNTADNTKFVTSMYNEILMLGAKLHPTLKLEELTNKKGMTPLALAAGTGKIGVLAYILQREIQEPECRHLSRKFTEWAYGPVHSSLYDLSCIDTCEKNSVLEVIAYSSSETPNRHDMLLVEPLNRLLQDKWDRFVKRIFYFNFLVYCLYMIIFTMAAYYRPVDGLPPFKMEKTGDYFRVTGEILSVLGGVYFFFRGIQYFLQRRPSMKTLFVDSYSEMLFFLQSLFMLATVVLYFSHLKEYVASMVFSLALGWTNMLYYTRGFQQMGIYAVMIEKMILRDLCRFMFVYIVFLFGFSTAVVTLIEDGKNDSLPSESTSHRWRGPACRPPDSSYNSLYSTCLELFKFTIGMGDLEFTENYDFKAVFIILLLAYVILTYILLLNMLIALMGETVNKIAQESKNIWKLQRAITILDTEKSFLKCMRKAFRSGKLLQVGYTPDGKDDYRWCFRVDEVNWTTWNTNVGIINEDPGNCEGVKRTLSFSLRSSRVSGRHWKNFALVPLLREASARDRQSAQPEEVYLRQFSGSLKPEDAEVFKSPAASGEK
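Fluo-8 calcium influx in TRPV1-expressing cells, kinetic read (ex 480/em 520 nm). Compound added and read 3 min for agonist activity, followed by capsaicin at EC20 final and 2 min further read for enhancement.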
Menin-MLL FL inh – qHTS Assay for Inhibitors Targeting the Menin-MLL Interaction in MLL Related Leukemias: Competition With Fluorescein Labeled MLL-derived Peptide. Fluorescence polarization, fluorescein-MLL peptide displacement from menin. FP activity change, % at 61.4 µM. 290,000 tested, under 10 active; inconclusive = falling polarisation curve, or a change in total fluorescence; inactive = total fluorescence flat and polarisation flat or rising; no compound was filed as active; the % refers to the polarisation; negative = inhibition;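 also: % of control where 0% means no effect; inhibitors lower the polarisation; unlabelled MLL peptide was the positive control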
TRPML1 inh – qHTS for Inhibitors of the Human Mucolipin Transient Receptor Potential 1 (TRPML1); AID 624415, 2012; activity change, negative = inhibition, % (no concentration beside the values); TRPML1-inducible cells, Ca2+ dye fluorescence, FDSS; hits give low values; inhibition of EC80 agonist-evoked calcium signal; Mucolipin-1 (Homo sapiens), Q9GZU1; 0.02% of 390,000 active; in the data active means activity change below about -50%; inconclusive means about -30% to -50%; inactive means above about -30%;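 also: stimulus is agonist 54-4 at its EC80 concentration; % is scaled to controls: 0 for no effect and ±100 for the full control effect; compound concentration not given in the record; the text of the record puts the active cut at -80%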
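Calcium fluorescence in TRPML1-DL cells induced overnight with Tet: a 110 s read after compound pin addition, then a 110 s antagonist read after challenge with 54-4 at 4 uM final (EC80).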
Sfp PPTase inh – qHTS Assay for Inhibitors of Bacillus subtilis Sfp phosphopantetheinyl transferase (PPTase); Potency, µM, inactives show max response, negative = inhibition, usual class: inhibitors; 3.5% of 310,000 active; AID 1490, 2009; Biochemical Sfp PPTase activity, qHTS; active = well fitted inhibition curve with a large enough effect; inconclusive = small, poorly fitted or top-dose-only effect, or another doubt; inactive = no such curve, though single readings can be large or run the other way;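 also: the enzyme is Sfp with the accession as filed and its product quenches rhodamine fluorescence; potency is read from the fitted curve at half-maximal effect; 0% = enzyme reaction without inhibitor and -100% = no enzyme wells; top concentration of the series not given in the record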
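Reaction rates are the 30-min fluorescence difference (ex 525, em 598 nm) in wells containing 15 nM Sfp, 5 uM rhodamine-CoA and 12.5 uM BHQ-2-YbbR at pH 7.6 with 10 mM MgCl2.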
PINK1 modulator – A Quantitative High throughput Screen to Identify Chemical Modulators of PINK1 Expression; PINK1 immunofluorescence, high-content cytometry, 24 h; 0.2% of 410,000 active; Potency, µM (doses to about 76.6 µM), without a hit: top-dose activation (PINK1 increase), hits mostly activators; active = well fitted activation curve with a large enough effect; inconclusive = small, poorly fitted or top-dose-only effect; inactive = flat fitted curve, though single readings scatter; cell line not stated here;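 also: potency is read from the fitted curve at half-maximal effect; % of control where 0% means no effect; nearly all actives have a fitted effect of over 65% in size; a mitochondrial uncoupler was the plate control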
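Measures PINK1 amount and localization on or inside mitochondria by immunofluorescence. Stable cells get compounds at 5 concentrations for 24 hours before fixation and staining; CCCP controls included.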
TRPML1 agonist – qHTS for Agonists of the Human Mucolipin Transient Receptor Potential 1 (TRPML1). AID 624414, 2012. 0.12% of 410,000 active. TRPML1-expressing cells, Ca2+ dye fluorescence, FDSS; host cell line not named in the record; reference of the full effect not given here. activation, % (no concentration beside the values). Mucolipin-1 (Homo sapiens), Q9GZU1; in the data active = activation above about 50%; inconclusive = about 30% to 50%; inactive = below about 30%; also: 0% is about no effect; the text of the record puts the active cut at 80%
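Tetracycline-induced TRPML1-DL cells are seeded and incubated overnight before loading with a no-wash Ca2+ dye and quencher. Agonist activity is taken from the 110 s fluorescence read following compound pin-transfer on an FDSS, before EC80 54-4 challenge.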
ClpP mod – qHTS Assay for Activators of ClpP; ATP-dependent Clp protease proteolytic subunit (Bacillus subtilis (strain 168)), P80244; purified B. subtilis ClpP, FRET peptide cleavage, 20 min; Potency, µM (titrated, usually from 57.5 µM), without a hit: at the top dose activity change, negative = active; 1.9% of 340,000 active; active = well fitted falling curve with a large enough effect; inconclusive = small, poorly fitted or top-dose-only effect; inactive = no such curve, though single readings can be large or run the other way; also: potency is read from the fitted curve at half-maximal effect; the source files actives as falling curves though it sought activators and does not explain the sign; nearly all actives have a fitted effect of over 65% in size; many hits overshoot -100%
Target sequence (P80244 whole entry, looked up): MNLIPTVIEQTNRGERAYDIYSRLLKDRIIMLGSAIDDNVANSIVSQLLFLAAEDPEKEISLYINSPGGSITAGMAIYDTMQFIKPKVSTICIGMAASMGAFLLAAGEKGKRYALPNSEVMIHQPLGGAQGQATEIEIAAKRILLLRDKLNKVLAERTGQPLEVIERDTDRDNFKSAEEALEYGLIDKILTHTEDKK
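ClpP 10 microg/mL final, pH 8 Tris/KCl buffer with BSA, glycerol, Tween-20; compound pinned in; FRET-FV substrate; RT 20 min; Ex320/Em430; ΔFRET vs ADEP 5.8 microM, DMSO, no enzyme.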
Starred values were filed as active, the others as inactive; ? = inconclusive; nt = not tested or not shown; & = joins results of further samples; [ ] = dose if it differs, or a comment.

Molecule	TRPV1 potentiator	Menin-MLL FL inh	TRPML1 inh	Sfp PPTase inh	PINK1 modulator	TRPML1 agonist	ClpP mod
COc1ccc(S(=O)(=O)n2nc(OC(C)=O)cc2N(C(C)=O)C(C)=O)cc1	7	-4.3	-9	15%	0.1%	-0.3	-0.5%
CC(Cc1ccccc1)NC(=O)C1CCCNC1=O (configuration not stated)	-5	0.0	6	3%	nt	0.3	-0.6%
COC(=O)c1ccc(CN2C(=O)NC3(CCCc4ccccc43)C2=O)o1 (configuration not stated)	-11	7.1	0	0%	4.0%	-0.6	0.7%
COc1ccc(NC(=O)c2ccc(NC(=O)c3cccs3)cc2)cc1	11	-0.9	0	-8%	11%	0.0	27%
CCn1c(CNC(=O)c2ccco2)nnc1SCC(=O)Nc1cccc(F)c1	5	-1.3	34	13%	-0.1%	2.0	-0.4%
Cc1ccc(-n2c(=O)cc(N3CCN(C(=O)c4ccco4)CC3)[nH]c2=O)cc1	-1	3.2	7	-22%	2.7%	-0.4	1.2%
CC1CCCCN1C(=O)COC(=O)c1cc(Cl)c2c(c1)OCO2 (configuration not stated)	-14	nt	10	nt	-0.5%	1.0	-0.7%
COc1cc(NC(=O)Cn2c(=O)n(Cc3ccccc3Cl)c(=O)c3cc(OC)c(OC)cc32)cc(OC)c1	nt	nt	5	nt	1.2%	-0.2	-22%
CCN(CC)S(=O)(=O)c1ccc(Cl)c(C(=O)NC2CCN(Cc3ccccc3)CC2)c1	2	0.3	-8	12%	1.3%	-0.1	-0.4%
COc1ccc(S(=O)(=O)Nc2cc(C)cc(C)n2)c2ccccc12	-13	4.5	22	12%	nt	0.1	-23%
CC(=O)Nc1cccc(NC(=O)c2cccc(-c3ccc(O)cc3)c2)c1	7	-5.5	10	-4%	2.0%	-0.2	nt
Nc1ncnc2c1ncn2C1OC(CO)C(O)C1O (configuration not stated)	3	-3.8&-4.3&-0.8	-10	5%&-14%&2%	-1.1%	1.2	-0.8%

2 compounds picked at random from the list so far:
Molecule	TRPV1 potentiator	Menin-MLL FL inh	TRPML1 inh	Sfp PPTase inh	PINK1 modulator	TRPML1 agonist	ClpP mod
COC(=O)c1ccc(CN2C(=O)NC3(CCCc4ccccc43)C2=O)o1 (configuration not stated)	-11	7.1	0	0%	4.0%	-0.6	0.7%
Nc1ncnc2c1ncn2C1OC(CO)C(O)C1O (configuration not stated)	3	-3.8&-4.3&-0.8	-10	5%&-14%&2%	-1.1%	1.2	-0.8%

Further structures.
Molecule	TRPV1 potentiator	Menin-MLL FL inh	TRPML1 inh	Sfp PPTase inh	PINK1 modulator	TRPML1 agonist	ClpP mod
O=S(=O)(c1cccc(Br)c1)N1CCN(CCc2ccccc2)CC1	0	0.4	26	7%	-3.0%	2.5	nt
O=C(Nc1cc2c(cc1Br)OCCO2)c1cccs1	-11	8.3	3	4%	-2.1%	-1.1	-1.0%
N#C/C(C(=O)NCc1ccco1)=C1/SC=C(c2ccccc2)N1c1ccccc1	?	2.5	4	0%	12%	3.9	-9.4%
Cc1ccc(C(=O)NNC(=O)Cn2ccc(C(F)(F)F)n2)o1	5	nt	-14	nt	0.8%	0.3	25µM*
CCCCc1c(O)nc(SCC(=O)N2CCCCCC2)[nH]c1=O	-2	-4.4	6	15%	1.6%	-0.1	nt
CCCN(CCC)C(=O)Cn1nnc2sc(-c3ccccc3)cc2c1=O	nt	nt	4	nt	2.2%	1.3	-5.6%
CN(c1ncnc(N)c1[N+](=O)[O-])C1CCS(=O)(=O)C1 (configuration not stated)	-8	-3.4	-14	17%	-1.9%	0.5	-1.8%
CN1CCN(c2ccc(CNC[C@H]3O[C@@H](n4cnc5c(=O)[nH]c(N)nc54)[C@H](O)[C@@H]3O)c(F)c2)CC1	nt	nt	-17	nt	2.5%	1.5	-0.5%
N#CC1=C(N)OC2=C(C(=O)CCC2)C1C1CC=CCC1 (configuration not stated)	-5	2.7	1	-2%	4.7%[38.3 µM]	-0.3	-0.5%
CCCn1nnc(NC(=O)COc2ccc(C3CCCCC3)cc2)n1	-12	1.8	7	0%	-0.7%[38.3 µM]	6.3	-2.6%
Cc1c(NC(=O)C(C)OC(=O)CC2CC3CCC2C3)c(=O)n(-c2ccccc2)n1C (configuration not stated)	25	0.0	-20	16%	-0.5%	-0.5	0.9%
O=C(NCc1ccccc1)c1cccc(N2CCCS2(=O)=O)c1	nt	nt	-2	nt	-1.3%	0.3	-5.8%

Continued:
Molecule	TRPV1 potentiator	Menin-MLL FL inh	TRPML1 inh	Sfp PPTase inh	PINK1 modulator	TRPML1 agonist	ClpP mod
O=C(NCC1CCCO1)c1cc(-c2ccncc2)nc2ccccc12 (configuration not stated)	6	nt	-14	nt	3.3%	-0.6	-16%
COc1ccccc1Cc1nc2ccccc2[nH]c1=O	nt	nt	-6	nt	4.5%	-0.2	-2.0%
CCOC(=O)[C@H]1[C@H]2COc3ccc(OC)cc3[C@@H]2N2C(=O)CN(Cc3ccc(OC)cc3)C(=O)[C@@]12C	10	nt	-10	nt	-0.2%	-0.3	2.2%
COc1ccccc1CNC(=O)COc1ccccc1C	4	-3.8	1	5%	2.4%	0.6	nt
O=C(O)COCC(=O)Nc1ccccc1-c1ccccc1	-2	-0.9	47	18%	0.4%	-0.5	nt
CC(OC(=O)CCC(=O)c1ccc(Cl)s1)C(=O)NC1(C#N)CCCCC1 (configuration not stated)	-22	nt	30	nt	0.2%	2.5	?
Oc1ccc2ccccc2c1C=NCc1ccccc1	-19	7.3	16	-24%	0.9%	0.7	0.9%
Cc1ccccc1NC(=O)C1C2CCC(O2)C1C(=O)O (configuration not stated)	10	-0.1	3	19%	-0.5%	-0.3	0.8%
CSc1nnc(C(C)(C)C)c(=O)n1/N=C/c1ccc(Cl)cc1	-7	2.7	2	17%	2.4%	-0.3	nt
CNC(=O)CCCCCNS(=O)(=O)c1ccc(C)cc1	1	1.6	-1	-6%	-1.1%	-0.7	1.3%
CCc1cc(C(=O)N(CC(C)C)c2c(N)n(Cc3ccccc3)c(=O)[nH]c2=O)sc1C	8	nt	-14	nt	4.8%	2.7	nt
COc1ccc(NC(=O)N(C)C[C@H]2OCCCC[C@H](C)Oc3ccc(NS(=O)(=O)c4cn(C)cn4)cc3C(=O)N([C@H](C)CO)C[C@@H]2C)cc1	nt	nt	13	nt	9.1%	0.1	-3.0%

Further compounds.
Molecule	TRPV1 potentiator	Menin-MLL FL inh	TRPML1 inh	Sfp PPTase inh	PINK1 modulator	TRPML1 agonist	ClpP mod
CCc1nnc(NC(=O)CSc2nnc(-c3ccc(O)cc3)n2C)s1	7	1.3	-3	-3%	-1.1%	1.7	nt
CCOC(=O)N/N=C(/C)c1cccc(-n2cnnn2)c1	25	-1.5	0	10%	-0.7%	2.2	nt
CC1CCc2onc(C(=O)N3CCN(c4cccc(Cl)c4)CC3)c2C1 (configuration not stated)	nt	nt	-2	nt	?	0.3	-0.6%
CN1C(=S)N(c2ccccc2)C(=O)/C1=C/c1cccs1	4	2.1	0	13%	?	-0.1	-0.7%
CN1CCN(C(=O)CCc2ncc(C(F)(F)F)cc2Cl)CC1	5	-3.9	24	27%	0.2%	-0.9	nt
Cc1ccc(C)c(NC(=O)c2nn(C)c3c2CS(=O)(=O)c2ccccc2-3)c1	nt	nt	2	nt	0.1%	-0.1	-5.2%
COC(=O)CC1c2cc(OC)c(OC)cc2CC(=O)c2cc(OC)c(OC)cc21 (configuration not stated)	10	4.7	5	12%	1.1%	-0.2	-1.2%
NC(=O)NCCN1CCN(c2ncc(C(F)(F)F)cc2Cl)CC1	-13	-0.2	-4	14%	-2.4%	0.2	nt
CC(c1cccs1)N(Cc1ccco1)C(=S)Nc1ccccc1Cl (configuration not stated)	0	-0.3	32	-4%	6.4%	1.7	-0.7%
O=C(Cn1cnc2c(nnn2-c2cccc(Cl)c2)c1=O)N1CCCC1	-1	0.4	3	8%	3.8%[38.3 µM]	0.0	1.1%
CC(=O)Nc1ccc(Oc2cc(NC(C)=O)cc([N+](=O)[O-])c2)cc1	-6	8.9	12	16%	-1.1%	0.5	nt
COC(=O)c1ccc(CNS(=O)(=O)c2ccc3ccccc3c2)cc1	4	-0.9	8	4%	3.7%	-1.7	-3.0%

New compounds follow
Molecule	TRPV1 potentiator	Menin-MLL FL inh	TRPML1 inh	Sfp PPTase inh	PINK1 modulator	TRPML1 agonist	ClpP mod
CC(=O)c1c(N2CCOCC2)nc(=S)n(-c2ccccc2)c1C	0	2.9	4	-2%	nt	0.4	3.4%
Cc1cccc(N(CC(=O)Nc2ccccc2F)S(C)(=O)=O)c1	0	1.6	-3	22%	0.3%[38.3 µM]	-0.3	-6.2%
CS(=O)(=O)N1CCN(c2ccccc2NC(=O)c2ccco2)CC1	-7	5.6	84	-3%	nt	0.2	0.2%
COc1ccc(N2CC3=C(C2=O)C(c2ccc(O)c(OC)c2)NC(=O)N3C)cc1 (configuration not stated)	nt	nt	2	nt	-0.6%	0.8	-1.9%
COc1cc(NC(=O)c2cnn(-c3cccc(F)c3)c2C2CCNCC2)cc(OC)c1OC	nt	nt	-3	nt	-2.9%	1.6	0.6%
NC(=O)C1(N2CCCCC2)CCN(CC(=O)Nc2ccc(Oc3ccccc3)cc2)CC1	22	3.5	3	2%	1.1%[38.3 µM]	1.4	-0.8%
Cc1ccc(O)c(C(=O)c2cc(C(=O)NCCc3ccccc3)c(=O)n(CCc3ccccc3)c2)c1	9	5.8	15	13%	0.4%	0.5	2.8%
Cc1cc(Cl)ccc1NS(=O)(=O)c1c(C(=O)N2CCC(C)CC2)c(C)n(C)c1C	nt	nt	-11	nt	0.3%	1.5	-3.4%

Assay outcomes as filed in PubChem BioAssay.
